High-throughput results (PubChem BioAssay)
Marburg entry: Marburg virus entry inhibition. AID 720532. Marburg virus pseudotype entry/binding inhibition, cell-based; control for the full effect not named in the record; many of its hits are not listed in these tables. 6.5% of 18,000 active. Potency, µM (top dose mostly 49.2 µM), for the others: at the top dose activity change, negative = inhibition, most hits filed as inhibitors; active means well fitted inhibition curve with a large enough effect; inconclusive means small, poorly fitted or top-dose-only effect; inactive means no such curve, though single readings can be large or run the other way; tested in HEK293 cells; also: luciferase read-out
LASV entry inh: inhibitors of Lassa virus binding or entry into cells; AID 720533; 4.1% of 18,000 active; Potency, µM (top dose mostly 49.2 µM), for the others: top-dose activity change, negative = inhibition, hits mostly inhibitors; Lassa virus pseudotyped entry inhibition, cell-based qHTS; control for the full effect not named in the record; many of its hits are not listed in these tables; active = well fitted inhibition curve with a large enough effect; inconclusive = small, poorly fitted or top-dose-only effect; inactive = no such curve, though single readings can be large or run the other way; tested in HEK293 cells; also: luciferase read-out
* hit, by the source's call; ? = inconclusive; . = not tested or not shown; & = joins results of further samples; [ ] = another dose, or the depositor's remark. % is scaled to controls: 0 for no effect and ±100 for the full control effect; potency is read from the fitted curve at half-maximal effect. These rows are one share of the data; count on the stated rates, not on these rows.

Molecule | Marburg entry | LASV entry inh
CC(C)C[C@H](NC(=O)[C@H](CCCCN)NC(=O)[C@H](CCCNC(=N)N)NC(=O)[C@H](C)NC(=O)[C@H](CO)NC(=O)[C@H](CCCCN)NC(=O)[C@H](CCCNC(=N)N)NC(=O)[C@H](C)NC(=O)CNC(=O)[C@@H](NC(=O)[C@H](Cc1ccccc1)NC(=O)CNC(=O)CNC(=O)[C@@H](N)Cc1ccccc1)[C@@H](C)O)C(=O)N[C@@H](C)C(=O)N[C@@H](CC(N)=O)C(=O)N[C@@H](CCC(N)=O)C(=O)O | 9% | 7%
COC(=O)C/C=C/[C@@H](C)[C@H](NC(=O)OCC(Cl)(Cl)Cl)c1ccccc1 | -18% | 2%
O=C(Nc1cccc(C(=O)N2CCOCC2)c1)C1CCCCC1 | ? | 12%
Cc1ccc(S(=O)(=O)N2CCC(=O)N([C@H](COCc3cccc(C)c3)C(C)C)CC2)cc1 | ? | -27%
CCCCCCC(=O)CCCCCC/C=C/C[C@@H](O)[C@H](O)[C@@](N)(CO)C(=O)O | 6%&-23%&2% | ?
CCC=CC[C@@]1(C(=O)OC)C=C[C@@H](C)[C@H](c2ccccc2Br)N1C(=O)C(F)(F)F | -1%[8.59 µM] | 5%[8.59 µM]
Cc1c(C(=O)N2CC[C@@H]3CCCC[C@H]3C2)sc2ncnc(NCCc3ccccn3)c12 | -9% | -13%
NC(=O)c1cccc(Nc2nccc(Nc3cccc4[nH]ncc34)n2)c1 | ? | -16%
COc1cc2c(cc1OC)[C@@H]1O[C@](CCCCN3C(=O)c4ccccc4C3=O)(C2)Oc2c1c(=O)oc1ccc(F)cc21 | 2%[8.59 µM] | 32%[activator][8.59 µM]
C/C(Nc1ccc2oc(=O)ccc2c1)=C1/C(=O)CC2[C@@H]1C2(C)C (stereo not given in full) | -17% | -5%
CC(C)C[C@H](NC(=O)[C@H](CCC(N)=O)NC(=O)[C@H](CCCCN)NC(=O)[C@H](CCC(N)=O)NC(=O)[C@@H](N)CCC(=O)O)C(=O)N[C@@H](CCC(N)=O)C(=O)O | 11% | 5%
CC(CNC1CCCCC1)OC(=O)c1ccccc1 (stereo not given) | -3%[17.8 µM] | -12%[17.8 µM]
CN1CCN(c2ncnc3ccc(-c4ccccc4C#N)cc23)CC1 | -23% | -14%
N=C(C[C@@H](O)COc1ccccc1-c1ccccc1)N1CCCCC1 | ? | ?
C[S+](CC[C@H](N)C(=O)O)C[C@H]1O[C@@H](n2cnc3c(N)ncnc32)[C@H](O)[C@@H]1O (stereo not given in full) | 16%&-10% | 8%&-4%
CNCCc1cnc[nH]1 | 1%&16%&-4% | -5%&1%&-5%
O=C(CCN1Cc2ccccc2OC(c2ccccc2)C1)N[C@@H]1CS(=O)(=O)C[C@H]1O (stereo not given in full) | -2% | -4%
COc1ccc(C2(C(=O)NCC3Cc4cccc(-c5nc(C)cnc5C)c4O3)CCCC2)cc1 (stereo not given) | -10% | -18%
COC(=O)C1=C(C)N(Cc2ccccc2)C(=NCc2ccc(OC)cc2)NC1c1ccccc1 (stereo not given) | -18%[8.59 µM] | 1%&13%[8.59 µM]
O=C(/C=C/C(=O)Oc1ccccc1C(=O)O)Oc1ccccc1C(=O)O | -3% | -1%
CC[C@H](C)[C@H](NC(=O)[C@H](CCC(=O)O)NC(=O)CNC(=O)[C@@H](NC(=O)[C@@H]1CCCN1C(=O)[C@@H](NC(=O)[C@@H]1CCCN1C(=O)[C@@H]1CCCN1C(=O)[C@H](CC(N)=O)NC(=O)[C@H](CC(N)=O)NC(=O)[C@@H](NC(=O)[C@H](CCSC)NC(=O)[C@H](Cc1c[nH]c2ccccc12)NC(=O)CNC(=O)[C@@H](NC(=O)[C@H](CCC(N)=O)NC(=O)[C@@H](N)CCC(=O)O)[C@@H](C)CC)[C@@H](C)O)[C@@H](C)CC)C(C)C)C(=O)O | -2% | 4%
Cc1ccc2c(CC(=O)N3CCOc4ccc(CN5C[C@@H](C)O[C@@H](C)C5)cc4C3)cc(=O)oc2c1 | -7% | -1%
CSc1ccc(-c2ccc(C(=O)NCC3CCCO3)c(N3CCC(O)CC3)n2)cc1 (stereo not given) | -2% | -5%
COc1ccccc1[C@@H]1C(c2ccc(F)cc2)=NN(c2ccccc2)[C@H]1C(=O)N1CCOC1=O | -14% | -25%
COc1ccccc1CN1CCOc2ccc(C(C)(O)COc3ccccc3)cc2C1 (stereo not given) | -8% | -15%
CC(C)(C)c1nc(-c2ccccc2)oc1Nc1ccc2ccccc2c1 | -24%[8.59 µM] | 31%[activator][8.59 µM]
CC(NC(=O)c1ccco1)c1nnc2n1CCN(Cc1ccc(N3CCCC3)cc1)CC2 (stereo not given) | 5% | -26%
COc1ccccc1-c1oc2ccccc2c(=O)c1OC | -2% | -4%
O=C(CN1Cc2ccccc2OC(c2ccsc2)C1)N1CCC(c2nc3ccccc3[nH]2)CC1 (stereo not given) | ? | -15%
CSc1ccc(CN2CCOc3ccc(CN4CCCCC4CO)cc3C2)cc1 (stereo not given) | ? | -6%

Fetched by structure from the entries so far:
Molecule | Marburg entry | LASV entry inh
COc1ccccc1[C@@H]1C(c2ccc(F)cc2)=NN(c2ccccc2)[C@H]1C(=O)N1CCOC1=O | -14% | -25%
C[S+](CC[C@H](N)C(=O)O)C[C@H]1O[C@@H](n2cnc3c(N)ncnc32)[C@H](O)[C@@H]1O (stereo not given in full) | 16%&-10% | 8%&-4%
Cc1ccc(S(=O)(=O)N2CCC(=O)N([C@H](COCc3cccc(C)c3)C(C)C)CC2)cc1 | ? | -27%

An excerpt of these results, with two lines to a compound:
Sequence of screens: Marburg entry, LASV entry inh
- CC(NC(=O)c1ccco1)c1nnc2n1CCN(Cc1ccc(N3CCCC3)cc1)CC2 (stereo not given)
    5%, -26%
- COc1ccc(C2(C(=O)NCC3Cc4cccc(-c5nc(C)cnc5C)c4O3)CCCC2)cc1 (stereo not given)
    -10%, -18%
- CNCCc1cnc[nH]1
    1%&16%&-4%, -5%&1%&-5%
- N=C(C[C@@H](O)COc1ccccc1-c1ccccc1)N1CCCCC1
    ?, ?

Following part
Molecule | Marburg entry | LASV entry inh
O=C(/C=C/c1ccccc1)NCCO | -5% | -9%
Cc1ccc(C(=O)NCCc2nnc3n2CCN(Cc2cc(C)cc(C)c2)CC3)cc1 | -7% | -7%
CC(C)NC(=O)c1cn(C2CCCN(C(=O)c3cc4ccccc4oc3=O)C2)nn1 (stereo not given) | -2% | -1%
F[Si-2](F)(F)(F)(F)F | -5% | -4%
CCC(Oc1ccccc1)C(=O)N[C@@H]1C(=O)N2[C@@H]1SC(C)(C)[C@@H]2C(=O)O (stereo not given in full) | -10% | -12%
CC(C)C[C@H](NC(=O)[C@H](Cc1ccccc1)NC(=O)CNC(=O)[C@H](C)NC(=O)[C@@H](N)Cc1ccc(O)cc1)C(=O)O | 11% | 8%
CC[C@H](C)[C@H](NC(=O)[C@H](C)NC(=O)[C@H](CC(N)=O)NC(=O)[C@H](CCCCN)NC(=O)[C@H](Cc1ccccc1)NC(=O)[C@H](CC(C)C)NC(=O)[C@@H](NC(=O)[C@@H](NC(=O)[C@H](CC(C)C)NC(=O)[C@@H]1CCCN1C(=O)[C@@H](NC(=O)[C@H](CCC(N)=O)NC(=O)[C@H](CO)NC(=O)[C@H](CCCCN)NC(=O)[C@H](CCC(=O)O)NC(=O)[C@H](CO)NC(=O)[C@@H](NC(=O)[C@H](CCSC)NC(=O)[C@H](Cc1ccccc1)NC(=O)CNC(=O)CNC(=O)[C@@H](N)Cc1ccc(O)cc1)[C@@H](C)O)[C@@H](C)O)C(C)C)[C@@H](C)O)C(=O)N[C@H](C(=O)N[C@@H](CCCCN)C(=O)N[C@@H](CC(N)=O)C(=O)N[C@@H](C)C(=O)N[C@@H](Cc1ccc(O)cc1)C(=O)N[C@@H](CCCCN)C(=O)N[C@@H](CCCCN)C(=O)NCC(=O)N[C@@H](CCC(=O)O)C(=O)O)[C@@H](C)CC | 5%&21% | 5%&5%
CC1=C[C@]2(O[C@H](COc3ccccc3)C1)C(=O)N(C)c1ccccc12 | 144%[activator][8.59 µM] | 95%[activator][8.59 µM]
NC(=O)NS(=O)(=O)c1ccc(N)cc1 | 10% | ?
COc1ccc(C(=O)[C@]2(C)C=C(c3ccc(OC)cc3)[C@H](C)C2)cc1 | 2% | -9%
O=C(O)c1ccc(-c2ccccc2C(F)(F)F)s1 | 9% | -10%
COc1ccc2c(CCN)c[nH]c2c1 | 9% | -2%
COCC1CCCN(Cc2ccc3c(c2)CN(C(=O)c2ccnn2C)CCO3)C1 (stereo not given) | -11% | -1%
O=C(N[C@H]1N=C(c2ccccc2F)c2cccc3c2N(CC3)C1=O)c1cc2ccccc2[nH]1 | 14% | -29%
O=C(OCc1cn([C@H]2C[C@H](c3ccccc3)N(C(=O)C3CCCCC3)C[C@H]2O)nn1)c1ccccc1 | 17% | 8%
C=CCN1C=CC(=O)[C@@H](O)[C@H]1c1ccccc1Br | 7% | 7%
CCOC(=O)/C=C1\CC(C(=O)OCC)Oc2c(OC)cccc21 (stereo not given) | -5% | -9%
CN(Cc1ccccc1)C(=O)[C@H](Cc1ccc2ccccc2c1)NC(=O)[C@@H]1CCCN1C(=O)Nc1ccccc1[N+](=O)[O-] | ? | ?
COc1ccc2ccccc2c1CN1CCCC(n2cc(C(=O)N3CCCC3)nn2)C1 (stereo not given) | -1% | 5%
CC1(OC(=O)c2cccs2)C(=O)C=C2C=C(c3ccc(C#N)cc3)OC=C2C1=O (stereo not given) | 16%&-16% | 0%&10%
O[C@H]1CCCC[C@H]1N1CCC(c2ccccc2)CC1 | -12% | 0%
O=[N+]([O-])c1cccc2cn[nH]c12 | 10%&-3% | 5%&-12%
Cn1ccc2c(N(Cc3ccccc3)Cc3ccccc3)cc3c(c21)C1CCC3O1 (stereo not given) | -10% | 17%
CC1=C(C2=C(C)C(C(C)C)C3=C(C(=O)C(O)C3O)C2O)C(O)C2=C(C(O)C(O)C2=O)C1C(C)C (stereo not given) | -29% | 0%
CCCCCCCCCCCCC/C=C/[C@@H](O)[C@H](COP(=O)([O-])OCC[N+](C)(C)C)NC(=O)CCCCCCCCCCCCCCCCC | -15% | -12%
CC(C)CC1C(=O)N(Cc2cn(Cc3ccco3)nn2)CCS(=O)(=O)N1Cc1ccc(-c2cccc(CO)c2)cc1 (stereo not given) | ? | .
CS(=O)(=O)Nc1ccc(-c2ccc3c(NC(=O)C4CC4)n[nH]c3c2)cc1 | 11% | -74%
Cc1ccc(S(=O)(=O)N2CCC(=O)N([C@H](COCc3ccc(C(F)(F)F)cc3)C(C)C)CC2)cc1 | ? | ?
O=C(Cn1nc2ccccc2n1)N1CCOc2ccc(CN3CCc4sccc4C3)cc2C1 | -19% | -13%
CCOC(=O)CN1C(=O)N(CC)C(C)=C(C(=O)OC)C1c1ccccc1 (stereo not given) | ? | -25%[8.59 µM]

Structures from the list above containing a nitro group on carbon:
Molecule | Marburg entry | LASV entry inh
CN(Cc1ccccc1)C(=O)[C@H](Cc1ccc2ccccc2c1)NC(=O)[C@@H]1CCCN1C(=O)Nc1ccccc1[N+](=O)[O-] | ? | ?
O=[N+]([O-])c1cccc2cn[nH]c12 | 10%&-3% | 5%&-12%

Gathered by group, those above containing a cyano group.
Molecule | Marburg entry | LASV entry inh
CN1CCN(c2ncnc3ccc(-c4ccccc4C#N)cc23)CC1 | -23% | -14%
CC1(OC(=O)c2cccs2)C(=O)C=C2C=C(c3ccc(C#N)cc3)OC=C2C1=O (stereo not given) | 16%&-16% | 0%&10%
